High-throughput results from PubChem BioAssay.
NPYLR7 ag – mosquito NPYLR7 agonism; HEK293T NPYLR7/Galpha15, GCaMP6s calcium fluorescence; activation, % at 10 µM; 270,000 tested, 0.15% active; AID 1259423; in the data active means activation above about 40%;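 further: 0% = vehicle and 100% = reference agonist at the receptor; some compounds past the cut are filed as inactive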
NPYLR7 ag max-min – second read-out of NPYLR7 ag, no call of its own (marks repeat the call); activation, %; measured here: Max-Min RFU normalised activation; some inactives read as strong as hits;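 span of the calcium signal over five minutes; 0% = vehicle and 100% = native peptide agonist; compound fluorescence can raise it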
* = called active by the depositor; & = joins results of further samples. Not all compounds are listed. The share of hits here may be higher or lower than overall.

structure | NPYLR7 ag | NPYLR7 ag max-min
CC(=O)N1CCC[C@H]1c1n[nH]c(Cc2ccccc2)n1 | 20 | 7
Cc1ccc2c(c1)C(O)CC(C)N2N=O (stereo not drawn) | 0 | -5
CC1CCN(c2ccc(NC(=O)c3ccc(-c4ccccc4)cc3)cc2C(=O)NC(C)C)CC1 | -10 | -1
COc1ccccc1N1CCN(Cc2cc(=O)c(OCC#N)co2)CC1 | 0 | -2
COc1cc(NCCC(=O)N2CCN(C(C)C)CC2)ncn1 | 6 | 5
Cc1ccc(Nc2cc(C)nc(N3CCN(C(=O)CCC4CCCCC4)CC3)n2)cc1 | 7 | 0
CC(C)CN(CC(C)C)C(=O)Cn1cnc2sc3c(c2c1=O)CCCC3 | -2 | -4
CSc1nccc(N2CCCC(CCc3ccccc3)(C(=O)O)C2)n1 (stereo not drawn) | 0 | -8
CC(NC(=O)N(C)C1CC1)c1ccc(Oc2cccnc2)c(F)c1 (stereo not drawn) | 6 | 1
CCn1nccc1NC(=O)c1ccc(C2CCCCC2)cc1 | 1 | 0
Cc1ccsc1CN(C(=O)c1cccs1)C1CCS(=O)(=O)C1 (stereo not drawn) | 5 | 4
O=C(NCc1cccnc1)c1cc2n(n1)CCN(Cc1cccc(Cl)c1)C2=O | 1 | 4
NC(=O)CC1CCCN(C(=O)NC2CCN(CC(F)(F)F)C2)C1 (stereo not drawn) | -4 | -5
CNc1ccc(-c2cccnc2)cn1 | 1 | -1
O=C(NC(c1ccncc1)c1ccc(F)cc1)c1cn(Cc2ccc(Cl)cc2)nn1 (stereo not drawn) | 20 | 10

A second format for some results above.
smiles: CC(NC(=O)N(C)C1CC1)c1ccc(Oc2cccnc2)c(F)c1 (stereo not drawn)
  NPYLR7 ag: 6	NPYLR7 ag max-min: 1

smiles: Cc1ccc2c(c1)C(O)CC(C)N2N=O (stereo not drawn)
  NPYLR7 ag: 0	NPYLR7 ag max-min: -5

smiles: CNc1ccc(-c2cccnc2)cn1
  NPYLR7 ag: 1	NPYLR7 ag max-min: -1

smiles: CC(=O)N1CCC[C@H]1c1n[nH]c(Cc2ccccc2)n1
  NPYLR7 ag: 20	NPYLR7 ag max-min: 7

The list goes on:
structure | NPYLR7 ag | NPYLR7 ag max-min
O=C(CSc1ccccc1)Nc1nnc(SCc2ccc(C(F)(F)F)cc2)s1 | 5 | 18
CCCNC(=O)c1cc(-c2ccccc2F)n2nc(C(C)(C)C)cc2n1 | -4 | 0
Cc1ccc(CNn2c(C)n[nH]c2=S)cc1 | -6 | -13
CCOC(=O)c1cn[nH]c1S(=O)(=O)N1CCN(Cc2ccc3c(c2)OCO3)CC1 | 1 | -1
O=C(c1ccc(CSc2ccc(F)cc2)cc1)N1C2CCC1CC(Oc1cccc(C(F)(F)F)c1)C2 (stereo not drawn) | 2 | -4
COc1cccc(Cc2nsc(N3CCCN(C(=O)c4ccc(Cl)c([N+](=O)[O-])c4)CC3)n2)c1 | 4 | 13
O=C(c1cc(-c2ccccc2Cl)nc2cc(-c3ccccc3)nn12)N1CCN(c2cccc(Cl)c2)CC1 | 1 | 2
O=C(c1cc(Cl)ccc1F)N1CCCC(Nc2ccc3c(c2)OCCO3)C1 (stereo not drawn) | 16 | 0
O=C1OC(/C=C\c2cccc([N+](=O)[O-])c2)=NC/1=C/c1cccc(Cl)c1 | 10 | 1
COC(=O)C(=Cc1cccc(OC)c1)c1ccccc1 | 20 | 30
Cc1[nH]cnc1-c1nccn1-c1ccc2cn[nH]c2c1 | -1 | 0
CCc1ccc(S(=O)(=O)Nc2cccc(-c3ccc4nnc(C)n4n3)c2)s1 | -20 | -20
COc1ccc(/C=C2N=C(/C=C/c3ccccc3)OC/2=O)c(OC)c1 | 2 | -3
CC(=O)c1cc(CC(=O)N2CCC(N3CCC(C(=O)NC4CC4)CC3)CC2)cs1 | 12 | 8
Nc1cc(C(=O)N2CCN(C3CCCCC3)C(=O)C2)ccn1 | 3 | 2

Another view of some results above.
CCc1ccc(S(=O)(=O)Nc2cccc(-c3ccc4nnc(C)n4n3)c2)s1
  NPYLR7 ag: -20
  NPYLR7 ag max-min: -20

COc1ccc(/C=C2N=C(/C=C/c3ccccc3)OC/2=O)c(OC)c1
  NPYLR7 ag: 2
  NPYLR7 ag max-min: -3

CC(=O)c1cc(CC(=O)N2CCC(N3CCC(C(=O)NC4CC4)CC3)CC2)cs1
  NPYLR7 ag: 12
  NPYLR7 ag max-min: 8

Nc1cc(C(=O)N2CCN(C3CCCCC3)C(=O)C2)ccn1
  NPYLR7 ag: 3
  NPYLR7 ag max-min: 2

Other entries follow.
structure | NPYLR7 ag | NPYLR7 ag max-min
COCCn1cc(C(=O)NCCc2cccc(Cl)c2)c(=O)c(C(=O)N2CCCCCCC2)c1 | 13 | 13
Cc1cccc(CN2CCC(CN)C2)n1 (stereo not drawn) | 0 | -1
Cc1c(Cl)cccc1NC(=O)CC(=O)NCCc1ccccn1 | 15 | 0
O=C(CSc1ccccc1F)NC(=O)C1CCCCC1 | 8 | 3
O=C(O)c1ccc(S(=O)(=O)c2ccc3c(c2)C(=O)N(N2C(=O)c4ccccc4C2=O)C3=O)cc1 | 0 | 24
OC(c1ccc(Oc2ccccc2)cc1)c1nnc(NCCc2ccccc2)s1 (stereo not drawn) | 3 | 3
Cc1cc2nc3c(=O)[nH]c(=O)nc-3n(CC(O)C(O)C(O)CO)c2cc1C (stereo not drawn) | 173* | 157*
Cn1cnnc1C1CCCN(C(=O)c2cc(COc3ccc(F)c(F)c3)on2)C1 (stereo not drawn) | 6&-3 | 2&-2
CC(C)Oc1cccc(NC(=O)C2(C)CCN2C(=O)C(C)C)c1 (stereo not drawn) | 1 | -1
O=C(NN1CCCCC1)C1CCN(C(=O)c2cccc3ccccc23)CC1 | 0 | 1
COC(=O)c1ccc(Cn2cnc3c(nnn3-c3ccc(Cl)cc3)c2=O)o1 | -8 | -9
CNC(=O)C1CCCN(c2c(C#N)cnc3c(C)cc(F)cc23)C1 (stereo not drawn) | 5&7 | 6&17
Cc1ccc(S(=O)(=O)N2CCN(C(=O)c3ccc(Br)s3)CC2)cc1C | 0 | -1
Cc1ccc(-n2nnnc2CNC(=O)c2ccc(C(F)(F)F)cc2)cc1C | 4 | -1
O=C(NCc1ccccn1)C1=NN(c2ccccc2)C(=O)CC1 | 5 | 2
Cc1ccc(C(=O)N2CCC(c3nc(C)ccc3C(=O)N3CCCC3)CC2)cc1 | 6 | 4
O=C(NN=Cc1ccc([N+](=O)[O-])o1)c1cnccn1 | 3 | 43
O=C(CSc1nnnn1-c1ccc(Cl)cc1)Nc1cccc(Cl)c1 | 2 | 16
COc1cc([N+](=O)[O-])ccc1N1C(=O)C2C3C=CC(CC3)C2C1=O (stereo not drawn) | 5 | 3
COc1cc(OC)cc(C(=O)Nc2nnc(SCc3ccccc3C#N)s2)c1 | -5 | -2
Cc1ccccc1CNc1cccc([N+](=O)[O-])c1 | 12 | 13
O=C(O)[C@H]1C[C@H](C(=O)N2CCCC2)CN(Cc2ccc3c(c2)OCCO3)C1 | 7 | 8
Clc1ccc(CSc2nnc(NC3=NCCCCC3)s2)cc1 | -2 | -2
Cn1c(=O)c([N+](=O)[O-])c(Nc2ccc(Cl)cc2)c2ccccc21 | 5 | 12
Cc1ccc(F)c(NC(=O)CN2CCC(Oc3ccccc3Cl)CC2)c1 | -3 | 3
COc1ccc(C2CC3CC(c4ccccc4)N2O3)cc1 (stereo not drawn) | 8 | 11
CC(C)CNC(=O)NC(=O)COC(=O)c1ccc2c(c1)C(=O)N(Cc1ccco1)C2=O | 5 | 3
O=C(CSc1nnc(SCc2ccccc2)s1)NN=Cc1cccc(O)c1 | -6 | -11
COc1ccc(C(NC(=O)N(C)Cc2ccc3cc(OC)ccc3c2)C(C)C)cc1 (stereo not drawn) | 6 | 2
CC(NC(=O)NCCNc1ccccc1[N+](=O)[O-])c1ccccc1 (stereo not drawn) | 6 | 4
COCCNC(=O)C(NC(=O)c1cccs1)C1CCN(S(=O)(=O)c2ccc(Cl)cc2)CC1 (stereo not drawn) | 13 | 16
CCOC(=O)CNC(=O)N1CCC2(CC1)C(=O)N(CC(=O)NCc1ccc3c(c1)OCO3)CN2c1ccccc1 | 28 | 25
O=c1[nH]cnc2nc(NN=Cc3ccc(Cl)cc3)[nH]c12 | -12 | -14
N#Cc1ccc(CN(CCCO)c2ccccc2)c(F)c1 | 8 | 7
CCCCSC1=C(C#N)C(=O)NC(CO)S1 (stereo not drawn) | 11 | 4
CCCCCCCCOc1ccc(-c2nc(-c3ccc([N+](=O)[O-])cc3)no2)cc1F | -10 | -14
NC(=O)CSc1c(-c2ccccc2)[nH]c2ccccc12 | -1 | -1
COc1cccc(-n2nnc3c(SCC(=O)c4ccccc4)ncnc32)c1 | 19 | 21
Cc1csc(NC(=O)C(C)(C)Br)n1 | -7 | -14
CCN(CC)C(=O)c1cccc(-c2ccc3c(c2)N(CCN2CCOCC2)C(=O)COC3)c1 | 7 | 3
COc1cccc(-c2csc(-n3nc(C)cc3NC(=O)c3cccs3)n2)c1 | -7 | -10
COc1cccc(CNC(=O)C2COCCN2C(=O)OC(C)(C)C)c1 (stereo not drawn) | 6 | 3
O=C(NC(C(=O)N1CCCCC1)C1CCN(C(=S)Nc2ccc(F)cc2)CC1)c1cccs1 (stereo not drawn) | 1 | 4
NC(=O)c1ccc(NC(=O)Cn2nc(-c3ccccc3)c3sc(N4CCCCC4)nc3c2=O)cc1 | -2 | -5
CCCCCCCCCCC(C)(C)C(=O)Nc1c(OC)cc(OC)cc1OC | -13 | -18

Reformatted with values under each structure: 2 of the compounds above
Results follow in this order: NPYLR7 ag, NPYLR7 ag max-min
- CC(=O)N1CCC[C@H]1c1n[nH]c(Cc2ccccc2)n1
  20, 7
- CCCCSC1=C(C#N)C(=O)NC(CO)S1 (stereo not drawn)
  11, 4

(listing goes on)
structure | NPYLR7 ag | NPYLR7 ag max-min
CCOC(=O)c1c(NC(=O)c2c(Br)c(C)nn2CC)c(-c2cccc(F)c2)cn1C | 5 | 2
O=C(Cn1c2ccccc2c(=O)c2ccccc21)Nc1cc(Oc2ccccc2)cc([N+](=O)[O-])c1 | 0 | -7
CCN=C(C)Cc1nsc(Nc2ccc(Cl)c(Cl)c2)n1 | 0 | 2
O=C(C=Cc1ccc(I)o1)OCC(=O)c1ccc(Br)s1 | 0 | 0
CC1CN(Cc2nc3ccccc3c3ccccc23)CC(C)O1 (stereo not drawn) | 3 | 8
CC(C)c1n[nH]c(=O)c2c1cnn2-c1ccc(F)cc1 | 1 | -2
COCCN(Cc1cccs1)Cc1cccc(C)c1O | -4 | -8
O=C(CSc1nnc(Cc2ccccc2)n1-c1cccc(C(F)(F)F)c1)OCc1ccccc1 | 14 | 18
Cc1cc(CNC(=O)c2ccc(=O)[nH]n2)c2[nH]c(-c3ccccc3)c(C)c2c1 | 22 | 20
O[C@H]1CO[C@H]2CC[C@@H](NCc3cn(-c4ccccc4)nc3-c3ccccc3)[C@@H]1C2 | 13 | 19
Cc1oc(-c2ccco2)nc1CN1CCCC(c2ccccc2)C1 (stereo not drawn) | 6 | 6
CCn1cnc(S(=O)(=O)Nc2cccc(C(F)(F)F)n2)c1 | -20 | -25
NC(=O)c1cccc2c1CCCN2C(=O)C1=Cc2ccccc2OC1 | 1 | 0
O=C(NCc1ncc(-c2ccccc2)o1)Nc1ccc(F)cc1 | 21 | 16
Cc1cccc(Nc2nnc(SC3CCOC3=O)s2)c1C (stereo not drawn) | 1 | 0
CC(C)Cn1c(CN2CCCCC2C)nc2c1c(=O)n(C)c(=O)n2C (stereo not drawn) | 4 | 0
COC(=O)[C@@H]1C[C@H](NC(=O)CCN2Cc3ccccc3C2=O)CN1C | -3 | 5
